Compound activity deposited in PubChem by several laboratories.
Ecoli growth = inhibitors of Escherichia coli growth; OD600, 23 h; stronger effect = lower value; OD600 absorbance (concentration not given with the values); 330,000 compounds, 0.21% hits;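 active = OD600 absorbance below the run mean of sample wells minus 3.6 SD, in any replicate, cut at about 0.56 in these data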;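 note: stock transfer was 300 nL into about 60 µL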
B2AR ag = agonists of human beta-2 adrenergic receptor inducing internalization | response, % (concentration not given with the values) | AID 504454 | 340,000 compounds, 0.43% hits | Am2.2-beta2AR cells, FAP receptor internalization, flow cytometry; reference of the scale not given here | P07550;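 active = response above a set limit, near 3 SD of response in nonfluorescent compounds, cut at about 42% in these data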;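 note: stock transfer was 100 nL into about 11 µL; a reference agonist was the positive control; negative values mostly stem from fluorescent compounds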
Ecoli rRNA inh = inhibitors of bacterial rRNA selective over humanized ribosomes. AID 720706. 350,000 compounds, 1.6% hits. GFP signal change (wild-type ribosome), % (test concentration not listed). E. coli WT GFP vs humanized-ribosome RFP mutants, fluorescence, 24 h; stronger effect = lower value; DMSO median 0, no signal -100;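 active = significant combined selectivity score with lowered wild-type GFP, culture density cut under 30%, mutant RFP and density less affected; inactive = any of these conditions unmet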; note: one replicate is shown; some compounds called inactive have numbers as strong as hits
FGF22 binding = binders of recombinant human FGF22 by thermal shift | Q9HCT0 | SYPRO orange fluorescence; percent of sucrose octasulfate shift, DMSO zero | calls only at 9.99 µM | 340,000 compounds, 1.5% hits;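 active = melting point raised past a set limit in the mean and every replicate; three in four hits are not shown here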
Target sequence (Q9HCT0 whole entry, looked up): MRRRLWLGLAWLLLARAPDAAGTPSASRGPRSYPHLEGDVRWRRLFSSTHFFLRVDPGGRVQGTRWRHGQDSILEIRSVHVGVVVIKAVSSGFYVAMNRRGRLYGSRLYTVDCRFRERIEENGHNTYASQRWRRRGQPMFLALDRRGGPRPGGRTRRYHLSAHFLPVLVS
UCH37 inh = human UCH37 deubiquitinating enzyme inhibition | inhibition, % (test concentration not listed) | AID 588478 | 330,000 compounds, 0.33% hits | Q9Y5K5 | purified proteasome/UCH37, Ub-AMC cleavage fluorescence;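 active = mean of two replicates above 20%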;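 note: 0% = compound-free wells with enzyme and 100% = wells lacking proteasome; stock transfer was 100 nL into about 20 µL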
Target sequence (Q9Y5K5 whole entry, looked up): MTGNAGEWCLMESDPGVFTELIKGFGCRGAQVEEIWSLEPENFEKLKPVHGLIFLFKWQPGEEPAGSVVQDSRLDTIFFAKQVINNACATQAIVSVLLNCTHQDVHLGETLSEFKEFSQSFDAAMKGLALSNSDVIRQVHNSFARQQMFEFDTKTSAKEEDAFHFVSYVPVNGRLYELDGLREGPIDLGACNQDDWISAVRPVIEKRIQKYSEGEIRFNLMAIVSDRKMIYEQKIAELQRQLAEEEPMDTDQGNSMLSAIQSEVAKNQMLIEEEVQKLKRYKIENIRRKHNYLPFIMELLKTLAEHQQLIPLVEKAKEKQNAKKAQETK
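Material: human UCH37 enzyme supplied as purified proteasome complex. Measure: % inhibition of Ub-AMC cleavage fluorescence. Medium: pH 7.4 Tris-HCl (50 mM) with ovalbumin, ATP-MgCl2, DTT. Times: 30 min preincubation with enzyme, 25 min cleavage at room temperature. Detection: AMC fluorescence intensity at 355/460 nm.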
HNF4A DNA FP = change in binding of human HNF4 alpha to DNA; P41235; HNF4a-FITC DNA binding, fluorescence polarization, 1 h; activity change, % at 10 µM; 360,000 compounds, 0.3% hits; AID 1224865; in the data active = activity change above about 30%, passing the limit was not always enough;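 note: controls were the assay level and a saturating level of protein; the project sought stronger binding though the title names inhibitors; some compounds called inactive have numbers as strong as hits; positive values seem to mean higher polarization but the record does not say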
ALR H2O2 inh = human ALR oxidase inhibition via reduced H2O2 | P55789 | purified ALR, DTT oxidation, H2O2 HRP-luminol luminescence | inhibition, % (test concentration not listed) | 290,000 compounds, 3.8% hits | AID 485317;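 active = mean and each replicate at 75% or more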;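 note: stock transfer was 7.5 nL into about 7.5 µL; 0% = neutral wells and 100% = wells with inactivated enzyme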
Target sequence (P55789 whole entry, looked up): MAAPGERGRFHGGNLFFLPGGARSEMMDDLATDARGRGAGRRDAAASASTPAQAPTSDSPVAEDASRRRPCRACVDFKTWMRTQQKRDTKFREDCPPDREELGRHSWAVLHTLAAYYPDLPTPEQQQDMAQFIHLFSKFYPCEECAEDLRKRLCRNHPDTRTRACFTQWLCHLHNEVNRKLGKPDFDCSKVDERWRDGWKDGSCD
Ecoli rRNA inh OD600 = also measured in Ecoli rRNA inh; calls as there; OD600 change, %; measured here: OD600 growth;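 optical density of the mix in the first replicate; 0 = DMSO median and -100 = no signal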
Ecoli rRNA inh RFP = further read-out of Ecoli rRNA inh, marked with its call; RFP signal change, %; measured here: RFP humanized mutant strains;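 first replicate; 0 = DMSO median and -100 = no signal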
* = called active by the depositor; i = inactive; · = not tested or not shown. These rows are one share of the data, so the mix of outcomes need not match the whole.

entry	Structure	Ecoli growth	B2AR ag	Ecoli rRNA inh	Ecoli rRNA inh OD600	Ecoli rRNA inh RFP	FGF22 binding	UCH37 inh	HNF4A DNA FP	ALR H2O2 inh
1	CCCC1OC23CCCCC2C(C#N)(C#N)C1(C#N)C(=N)O3 (stereo unspecified)	0.651	7.1	·	·	·	·	-3.0	-3.8	-17.1
2	Cn1c(SCC(=O)Nc2ccc(N3CCOCC3)cc2)nnc1C(F)(F)F	0.7	-1.2	5.2	12.6	-3.2	i	1.0	-0.1	93.8*
3	COc1ccccc1OCCNC(=O)CNC(=O)c1ccc(C(C)(C)C)cc1	0.67	-3.3	·	·	·	i	1.4	-0.8	·
4	CSC[C@H]1CN(c2ccc(Br)cc2)C(=O)[C@@H]1CC(=O)Nc1ccc(Br)cc1	·	·	-24.1	-21.1	-2.4	i	·	-0.7	·
5	O=[N+]([O-])c1ccccc1-c1ccc(C(=S)N2CCCCC2)o1	0.71	2.6	-20.9	-3.3	13.3	i	3.3	1.8	10.4
6	Cc1ccccc1C(=O)NCCCCc1ccccc1	0.723	2.2	·	·	·	·	6.3	6.0	·
7	Cc1ccc(NC(=O)Cn2nnc(C(=O)NCc3cccs3)c2N)cc1Cl	0.634	-1.1	8.4	6.1	0.6	i	1.9	0.9	1.1
8	Cc1ccc(N2C(=O)C(O)(C(F)(F)F)C3=C2CC(C)(C)CC3=O)cc1 (stereo unspecified)	0.699	14.3	·	·	·	·	2.0	-0.9	-3.2
9	CC(=O)Oc1ccc(C(C)=O)c2c1OCCO2	0.667	3.7	10.6	14.4	-1.7	·	-6.6	-2.0	4.8
10	Cc1ccc2c(c1)C(=C(C#N)C#N)C(=O)N2CCN1CCCCC1	0.653	9.4	12.8	17.0	2.6	i	6.3	4.5	·
11	CCN(CC)C(=S)SCC(=O)Nc1nc(-c2ccccc2)c(-c2ccccc2)o1	0.758	7.3	2.2	-0.8	1.7	i	3.0	-0.4	2.0
12	O=C(c1cccnc1)N1C2C=CC(C2)C1(C(F)(F)F)C(F)(F)F (stereo unspecified)	0.781	-6.0	·	·	·	·	3.5	-3.6	-0.7
13	Cc1ccc(C(=O)Nc2nnc(COc3ccccc3)s2)cc1	0.648	1.1	15.8	7.3	-0.1	i	4.9	-4.8	-2.4
14	COC(=O)C(C)Oc1ccc(=O)[nH]n1 (stereo unspecified)	0.704	6.5	·	·	·	·	-1.8	-1.9	14.9
15	O=C(Nc1cc2c3c(c1)CC(=O)N3CCC2)c1cccc(F)c1	0.688	-1.4	1.1	6.0	-1.1	i	5.2	-1.2	-11.7
16	Cc1ccc(OCCC(=O)NCCc2ccc(S(N)(=O)=O)cc2)cc1	0.69	-1.8	·	·	·	·	2.2	0.7	-5.1
17	COc1ccc(C2c3c(oc4ccccc4c3=O)C(=O)N2CCCN2CCOCC2)cc1 (stereo unspecified)	0.743	·	·	·	·	·	3.8	·	1.7
18	Cc1cc(C)cc(N2CC34C=CC(O3)C(C(=O)OCC(=O)NCc3ccco3)C4C2=O)c1 (stereo unspecified)	0.74	3.3	·	·	·	·	1.6	-0.2	-6.5
19	CCOC(=O)C1=C(C)N(c2ccc(C)cc2)C(=O)/C1=C\c1ccc(O)c(OC)c1	0.689	9.8	1.8	-3.8	-1.3	i	3.6	0.8	15.0
20	CCOC(=O)CNC(=S)SC	0.658	11.5	8.2	12.1	2.8	i	4.5	-3.5	0.8
21	COc1ccccc1N1CCN(C(CNC(=O)C2CCCCC2)c2cccnc2)CC1 (stereo unspecified)	0.752	-6.7	1.8	-4.9	0.3	i	5.7	4.8	62.7
22	Cc1c(=O)n(OCc2ccc(Cl)cc2)c2ccccc2[n+]1[O-]	0.694	-2.6	3.5	-7.6	32.8	i	-18.0	-3.8	-7.8
23	Cc1ccc(-c2cc(C#N)c(=O)n(Cc3c(Cl)cccc3Cl)c2)cc1	0.741	4.6	·	·	·	·	-354.7	1.9	-5.1
24	Cc1ccc(NC(=O)C2CC(=O)NC(Nc3cccc(C)c3)=N2)cc1 (stereo unspecified)	0.764	2.6	·	·	·	·	1.3	0.5	-1.6
25	COC(=O)c1ccccc1NC(=O)COC(=O)CSCC(=O)N1CCOCC1	0.682	0.8	·	·	·	·	2.9	1.6	-2.1
26	NC(=O)c1ccc(N2CCOCC2)nc1	0.672	2.6	9.7	10.8	4.1	i	-2.8	-0.2	-1.9
27	Cc1ccc(NC(=O)CC(O)(C(F)(F)F)C(F)(F)F)cc1	0.599	6.5	·	·	·	·	0.1	-0.5	-1.4
28	COc1cc(NC(=O)COc2ccccc2[N+](=O)[O-])ccc1NC(=O)c1ccco1	0.695	-1.4	5.4	20.9	2.1	i	3.2	-3.9	·
29	CC(C)N1C(=O)/C(=C\c2nc3ccccc3c(=O)n2-c2ccccc2)c2ccccc21	0.697	37.8	·	·	·	·	1.2	0.8	-2.7
30	Cc1ccccc1CC1SC(N)=NC1=O (stereo unspecified)	0.622	-3.1	3.8	5.9	-4.0	i	-0.9	1.3	0.2
31	Cc1cc(=O)n2nc(N3CCC(C(=O)NCCc4ccc(Cl)cc4)CC3)sc2n1	0.7	4.4	2.4	3.8	5.2	i	2.6	5.4	-3.3
32	CCC(=O)Nc1sc2c(c1C#N)CC(C)(C)NC2(C)C	0.691	-18.0	·	·	·	·	0.3	1.9	-11.6
33	O=C(O)c1cccc(Nc2nc3ccccc3nc2NS(=O)(=O)c2cccs2)c1	0.702	1.5	-0.5	4.4	-1.9	i	13.2	-1.9	17.1
34	S=C(NCCc1ccccn1)NC1CCCCC1	0.653	7.3	·	·	·	·	0.3	-3.1	1.4
35	COC(=O)c1sccc1S(=O)(=O)NC(C)c1cnn(-c2ccc(OC)cc2)c1C (stereo unspecified)	0.693	2.7	-21.1	-12.7	-3.2	i	0.2	-0.2	-12.5
36	CC1CCc2sc(C(=O)NC3CCCCC3)cc2C1 (stereo unspecified)	0.688	3.9	5.6	6.1	2.5	i	2.0	-1.3	-3.3
37	O=C(NCCc1ccccc1)C(=S)N1CCCCC1	0.714	-3.5	7.5	12.7	-1.2	i	0.5	-0.5	·
38	CCCC(c1nnnn1C(C)(C)CC)N(CCCO)Cc1cc2cc(C)cc(C)c2[nH]c1=O (stereo unspecified)	0.732	1.4	·	·	·	·	-0.6	1.4	-3.3
39	Cc1ccc(C(=O)C(C)OC(=O)Cn2[nH]c(=O)c3ccccc3c2=O)cc1C (stereo unspecified)	0.687	3.4	17.2	15.5	1.2	i	-2.2	1.0	12.7
40	CCS(=O)(=O)CCSC(=N)N	0.653	2.3	8.5	0.4	-4.1	i	5.9	-1.7	0.1
41	Cc1cc(OCC(=O)NCCO)cc(C)c1Cl	0.716	-4.2	·	·	·	·	4.1	-2.3	-10.4
42	Cc1n[nH]c(=O)c2c(NC(=O)CSc3nc4ccccc4c(=O)n3C(C)C)oc(C)c12	·	6.0	-11.2	-3.9	0.7	i	·	-2.0	-9.8
43	CCOC(=O)c1sc(NC(=S)NC(=O)C23CC4CC(CC(C4)C2)C3)cc1C	0.706	-0.4	2.5	11.4	-3.1	i	-1.6	3.8	-2.3
44	CCCN1Cc2cccc(C(=O)NCc3ccc(C)cc3)c2C1=O	0.649	-9.0	-4.5	0.7	0.0	i	0.9	2.3	-3.7
45	O=C(CCc1nnc(CCC2CCCCC2)o1)NCCc1cccnc1	0.676	-2.0	3.5	-6.5	-2.3	i	4.9	-0.9	-4.8
46	CCC/C=N/NC(=O)c1cccc(Br)c1	·	-6.2	-14.7	-9.1	-1.0	i	·	2.1	-11.8
47	Cc1noc(/C=C/N(C)C)c1S(=O)(=O)N1CCCC(C(=O)Nc2ccccc2F)C1 (stereo unspecified)	0.647	2.3	12.5	9.9	1.8	i	3.0	2.8	52.4
48	COc1ccc(C2c3[nH]c4ccccc4c3C[C@H]3C(=O)N(CC(C)C)CC(=O)N23)c(OC)c1 (stereo partly specified)	0.645	3.0	-13.1	-12.6	-7.8	i	4.7	1.1	-21.6
49	CC(C)Cc1nnc(NC(=O)c2cc(-c3ccccc3)nc3ccccc23)s1	0.645	0.0	·	·	·	·	-0.2	-5.3	-0.3
50	O=C(CCn1cnc2ccccc21)N=Nc1c(O)[nH]c2ccccc12	0.675	-3.5	2.3	1.8	-7.7	i	7.0	-1.7	-3.6
51	CC(=O)Nc1ccc(C)c([N+](=O)[O-])c1	0.706	-1.3	10.6	4.4	-0.7	i	2.4	0.2	-5.5
52	NS(=O)(=O)c1ccc(CCNC(=O)CSc2nc3ccsc3c(=O)n2CC2CCC(C(=O)O)CC2)cc1 (stereo unspecified)	0.606	0.8	18.2	-8.9	-0.4	i	-2.4	2.2	12.1
53	COc1cccc(CN(C)C(=O)c2[nH]c(C)c(C(C)=O)c2C)c1OC	0.637	-1.3	5.7	4.2	0.0	i	0.0	6.0	·
54	O=C(N/N=C/c1ccncc1)/C(=C/c1ccccc1)NC(=O)c1ccccc1	·	-8.8	-9.4	-10.2	1.0	i	·	-0.4	-0.5
55	O=S1(=O)CC(N2CCCCC2)C(N2CCCCC2)C1 (stereo unspecified)	0.676	-6.7	·	·	·	·	0.1	-7.4	-1.0
56	CC(=O)C1CCC2C(CCC3=CC(=O)CCC32)C1 (stereo unspecified)	0.651	·	-2.3	-2.7	0.1	i	2.0	6.2	·
57	CCN(CC)c1ccc(-n2c(O)c(C=C3N=c4ccccc4=N3)sc2=S)cc1	0.739	-0.1	·	·	·	·	11.3	-1.6	-11.1

3 compounds from above, sorted by SMILES length, largest number first.
entry	Structure	Ecoli growth	B2AR ag	Ecoli rRNA inh	Ecoli rRNA inh OD600	Ecoli rRNA inh RFP	FGF22 binding	UCH37 inh	HNF4A DNA FP	ALR H2O2 inh
25	COC(=O)c1ccccc1NC(=O)COC(=O)CSCC(=O)N1CCOCC1	0.682	0.8	·	·	·	·	2.9	1.6	-2.1
44	CCCN1Cc2cccc(C(=O)NCc3ccc(C)cc3)c2C1=O	0.649	-9.0	-4.5	0.7	0.0	i	0.9	2.3	-3.7
9	CC(=O)Oc1ccc(C(C)=O)c2c1OCCO2	0.667	3.7	10.6	14.4	-1.7	·	-6.6	-2.0	4.8
